Mtb hypoxia inh – Mtb hypoxia fluorescent reporter inhibition; AID 1159583; fluorescence inhibition, % (concentration not given with the values); hit rate 0.1% among 300,000; M. tuberculosis hypoxia-regulated fluorescent reporter, fluorescence;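 active means 35 to 45% if threefold the growth effect, above 45% if 1.5-fold the growth effect; inactive means the rest, general growth blockers included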;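 further: wells of about 50 µL received 100 nL stock; 0% = vehicle wells and 100% = reference inhibitor wells; whole bacteria with a GFP reporter of the hypoxia response; strong numbers were not always called active; many hits fall short of the cut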
BJeLR viability – kills HRASV12-expressing BJeLR cells; BJeLR (HRASV12) viability, CellTiter-Glo ATP luminescence, 48 h; reference of the scale not given here; inhibition, % (concentration not given with the values); hit rate 0.17% among 300,000; AID 1554;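 active means replicate mean above 50%; inconclusive means above 50% but judged a plate artefact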;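 further: 50 nL library stock added to about 25 µL; numbers are from one replicate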
RN4220 kill – S. aureus RN4220 growth inhibition; OD600, 16 h; AID 1259311; inhibition, % (concentration not given with the values); hit rate 0.33% among 330,000;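 active means z-score of -3 or lower and OD600 up to 0.18 on both plates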;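 further: plate controls were untreated cells for no effect and reference antibiotic for full effect; stock transfer was 100 nL into about 80 µL; one replicate is shown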
PrP 5UTR inh – inhibition of PrP 5' UTR reporter expression | cell-based PrP 5' UTR mRNA reporter, plate reader | hit rate 0.35% among 340,000 | inhibition, % (concentration not given with the values);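 active means every replicate at 50% or more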;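 further: 0 = median of the neutral control wells; tested in H4 reporter cells; numbers are from one replicate; inactives centre near -14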
Sa ugtP lethal – growth inhibition of S. aureus ugtP deletion strain; S. aureus RN4220 ugtP deletion, OD600 growth, 16 h; some inactives read as strong as hits; hit rate 0.54% among 330,000; growth inhibition, % (test concentration not listed);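 active means z-score under -3 and OD600 up to 0.15 on both plates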;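 further: plate controls were untreated wells for no effect and antibiotic for full effect; wells of about 80 µL received 100 nL stock; the first replicate is given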
Autofluor counter – flagged as autofluorescent in microsphere protease counterscreen. compound autofluorescence counterscreen, microsphere flow cytometry; stronger effect = higher value. fluorescence intensity (concentration not given with the values). hit rate 3.1% among 360,000. AID 624483;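 active means at least 3 SD above the mean of all compounds, about 16000 in these data; inconclusive means too few beads counted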;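 further: 100 nL of 1 mM stock went into each well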
Mtb hypoxia inh growth – recorded beside Mtb hypoxia inh, whose call it bears; growth inhibition, %; measured here: M. tuberculosis growth (absorbance);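 0% = vehicle and 100% = reference antibiotic; read after six days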
* hit, by the source's call; ? = inconclusive; / = not tested or not shown.

SMILES	Mtb hypoxia inh	Mtb hypoxia inh growth	BJeLR viability	RN4220 kill	PrP 5UTR inh	Sa ugtP lethal	Autofluor counter
COc1ccc(C2C=C(c3ccc(C)c(C)c3)Nc3ncnn32)c(OC)c1OC (stereo unspecified)	/	/	-11	4.7	3	-5	6392
Cc1cnc(C(=O)N2CCN(S(=O)(=O)c3ccc(F)c(F)c3F)CC2)cn1	-6	5	/	3.7	-9	7	/
O=C1CC(N2CCc3ccccc32)C(=O)N1c1ccc(F)cc1 (stereo unspecified)	-2	9	10	11	-15	4	4329
COc1ccc(/C=C/CN2CCN(Cc3ccc(F)cc3)C(CCO)C2)cc1 (stereo unspecified)	5	9	1	2.6	-23	9	4246
COc1ccc(S(=O)(=O)N(CC(=O)N2CCN(c3ccccc3)CC2)c2ccccc2)cc1	0	12	0	1.3	-10	-2	5695
CCCCNC(=O)c1onc(CSc2ccc(C)c(C)c2)c1C(=O)O	-1	2	7	17	-56	3	4293
O=C(NCCc1ccccc1)c1ccc2c(c1)OCCCO2	/	/	-7	/	92*	/	4469
CCOC(=O)CC(NC(=O)c1cccc2c1C(=O)N(Cc1cccnc1)C2)c1ccc(OCC)c(OC)c1 (stereo unspecified)	-1	-3	-1	-4.4	-7	32	2235
Cc1c(C(=O)NCc2ccc3c(c2)OCO3)oc2ccccc12	0	13	19	1.4	-11	6	20346*
CCCN(CCC)C(=O)Cn1ccc(=N)c2ccccc21	/	/	-3	1.6	-20	-13	2602
CCc1ccc(-c2c(C)sc(NC(C)=O)c2C(N)=O)cc1	8	7	-4	6.7	-3	-9	22107*
Cc1n[nH]c(C)c1CCNC(=O)C1CCC(=O)N(Cc2ccccc2F)C1 (stereo unspecified)	2	-1	0	-0.3	2	-2	5700
Cc1cc(C)c(N(C(=O)CN2C(=O)c3ccccc3S2(=O)=O)C(C(=O)NCC2CCCO2)c2ccc(F)cc2)c(C)c1 (stereo unspecified)	5	12	11	-0.5	-22	-7	2386
Cc1ccc(-c2nc(CS(=O)(=O)CC(=O)N3CCOCC3)c(C)o2)cc1	-1	2	10	0.2	-21	2	5742
C=CCn1c(-c2sc(-c3ccccc3)nc2C)n[nH]c1=S	19	8	2	-2.3	-9	1	3176
CC(C)(C)C(=O)N1NC(=Nc2ccccc2)SC1(C)C	6	9	-1	0.6	-18	10	/
C=CCC[C@H](Cc1ccc(F)cc1)C(=O)O[C@H](CNC(=O)[C@@H](CC=C)CC(=O)N(CCO)Cc1ccccc1)c1ccccc1	-6	1	/	-10	0	-26	3869
O=C(CCCOc1ccccc1)NCc1ccco1	5	2	4	0.7	-23	1	?
O=C(c1cc(=O)[nH]c2ccc(Br)cc12)N1CCC2(CC1)OCCO2	8	11	3	3.3	-8	-5	2507
O=C(C/C=N\OCc1ccc(Cl)cc1Cl)Nc1ccccc1	/	/	-5	/	-17	/	3504
Cc1cccc(C)c1OCC(=O)NNC(=O)CCNC(=O)c1ccc(Br)cc1	-1	1	3	6.2	-15	4	5539
Cn1c(CN2CCCCC2)nc2cc(NC(=O)c3ccccc3Cl)ccc21	6	3	8	0.2	-6	1	20760*
CS(=O)(=O)Nc1ccc(C(=O)Nc2ccccc2C(=O)N2CCCC2)cc1	8	8	4	2.9	-17	6	20057*
COC(=O)C1=COC(C)C2CN3CCC4(C(=O)Nc5ccccc54)C3CC12 (stereo unspecified)	/	/	7	3.7	-7	8	5478

Record cards, as listed above. Screens in order: Mtb hypoxia inh	Mtb hypoxia inh growth	BJeLR viability	RN4220 kill	PrP 5UTR inh	Sa ugtP lethal	Autofluor counter
`O=C(C/C=N\OCc1ccc(Cl)cc1Cl)Nc1ccccc1` is listed as /	/	-5	/	-17	/	3504
`C=CCC[C@H](Cc1ccc(F)cc1)C(=O)O[C@H](CNC(=O)[C@@H](CC=C)CC(=O)N(CCO)Cc1ccccc1)c1ccccc1` is listed as -6	1	/	-10	0	-26	3869
`Cc1cc(C)c(N(C(=O)CN2C(=O)c3ccccc3S2(=O)=O)C(C(=O)NCC2CCCO2)c2ccc(F)cc2)c(C)c1` (stereo unspecified) is listed as 5	12	11	-0.5	-22	-7	2386
`COC(=O)C1=COC(C)C2CN3CCC4(C(=O)Nc5ccccc54)C3CC12` (stereo unspecified) is listed as /	/	7	3.7	-7	8	5478

New compounds follow:
SMILES	Mtb hypoxia inh	Mtb hypoxia inh growth	BJeLR viability	RN4220 kill	PrP 5UTR inh	Sa ugtP lethal	Autofluor counter
CCN1CCN(S(=O)(=O)c2ccc(C(=O)Nc3sc4c(c3C(N)=O)CCN(CC)C4)cc2)CC1	5	6	-3	2.7	-8	3	5595
COc1ccc(C=NNc2nc3ccccc3s2)cc1	16	13	/	-2.0	22	-12	4299
O=C(NC(Cc1c[nH]c2ccccc12)C(=O)O)/C(=C/c1ccco1)NC(=O)c1ccccc1 (stereo unspecified)	/	/	7	/	-25	/	3462
COC(=O)c1ccncc1C(=O)Nc1ccc(F)cc1	8	-1	0	3.0	6	3	4023
COc1ccccc1N1CCN(C(=O)c2cc(-c3ccc4c(c3)OCO4)on2)CC1	7	5	-5	5.3	-37	7	11231
Cc1ccccc1N=C(NO)c1nonc1N	10	-4	-3	3.6	-20	5	3620
CCN(CC)CCN1C(=O)C(=O)/C(=C(/O)c2ccc(S(=O)(=O)N3CCOCC3)cc2)C1c1ccc(Cl)cc1 (stereo unspecified)	7	5	-3	4.0	-5	7	4110
CC(=O)Nc1ccc(NC(=O)COC(=O)C2CCC(C(C)(C)C)CC2)cc1 (stereo unspecified)	9	9	/	3.4	-21	2	3442
Nc1nc2nc(-c3ccc(Cl)cc3)cc(C(F)(F)F)n2n1	-10	-7	-16	3.8	-3	0	11283
CC(C)(C)C(=O)c1sc(Nc2ccccc2)nc1N	-3	6	-10	8.3	-179	2	10577
O=C(Cc1cccs1)NN=Cc1ccc(O)cc1	8	4	/	4.1	/	6	/
CC1CC1C(=O)OCC(=O)Nc1cccc(S(=O)(=O)NC2=NCCCCC2)c1 (stereo unspecified)	1	5	-6	7.1	-3	5	4244
COc1c[nH]n(-c2ccccc2)c(=O)c1=O	-4	14	-8	1.2	-15	-4	6132
CCc1cc2c(C)ccc(C)c2nc1SCC(=O)Nc1c[nH]c(=O)[nH]c1=O	16	8	-3	2.8	-8	9	4403
Cc1cc([N+](=O)[O-])ccc1NCc1cccc2ccccc12	2	-2	13	3.7	-8	30	5533
CCCCCCc1nc2c(=O)[nH]c3ccccc3c2o1	3	-5	3	-0.1	-21	-12	4068
CCOC(=O)N1CCN(C(=O)c2ccc3c(c2)NC(=O)/C(=C\c2ccc(OC)c(OC)c2)S3)CC1	-11	6	9	5.8	-16	-9	5121
CCOc1ccc(/C(O)=C2/C(=O)C(=O)N(CC3CCCO3)C2c2ccco2)cc1 (stereo unspecified)	14	10	3	7.0	-16	-1	8620
O=C(Nc1nc2nccc(-c3ccccc3)n2n1)c1ccc(F)cc1	1	2	3	3.5	-6	5	2095
COc1cc2c(cc1OC)C(=O)N1C3c4cc(Cl)ccc4OCC3C(c3ccccc3)[C@]1(C)C(=O)N2 (stereo partly specified)	9	17	/	-6.0	/	-9	/
Cc1ccc(OCC(=O)O/N=C(\N)Cc2ccc(Cl)cc2)cc1	14	5	5	4.5	-20	-3	4298
COc1ccc([N+](=O)[O-])cc1N(CC(=O)Nc1ccccc1C(=O)N1CCOCC1)S(C)(=O)=O	1	-3	-24	1.9	-7	9	4146
CCOC(=O)C(Cc1ccccc1)NS(=O)(=O)c1ccc(NC(C)=O)cc1 (stereo unspecified)	3	8	-1	5.5	-11	1	4159
CCC(=O)N1CCc2cc(Br)cc(S(=O)(=O)NCCN3CCCCC3CC)c21 (stereo unspecified)	12	14	/	4.5	-2	1	15822
Cc1ccc(-c2c(NC(=O)C(C)C)n(C)c3ccccc3c2=O)cc1	4	1	3	0.3	-28	-1	4084
O=C(Cn1cnc2ccccc21)NN=Cc1cccs1	-2	0	/	14	/	-4	/
COc1ccc(NC(=O)C(C)Sc2nnc3c4c(nc(-c5ccc(OC)cc5)n23)CC(C)(C)OC4)cc1 (stereo unspecified)	4	-2	2	-1.7	-16	9	2072
Cc1cccc(N2CCN(CC(=O)Nc3ccc(S(=O)(=O)N4CCOCC4)cc3)CC2)c1C	-7	-2	8	-5.2	-18	-12	5852
O=C(c1ccco1)N1CCN(C(=O)c2nn3cccnc3c2Cl)CC1	0	5	-1	1.2	10	9	22749*
COc1ccccc1C(=O)Nc1sc(C(=O)N2CCCC2)c(C)c1C#N	-5	8	0	4.3	-17	1	4715
COc1ccc(OC)c(NC(=O)C2CCN(S(=O)(=O)c3c(C)noc3C)CC2)c1	/	/	3	2.2	6	0	2334
COc1ccc(C2CC(c3cccs3)=NN2S(=O)(=O)c2ccc(C)cc2)cc1 (stereo unspecified)	1	13	-3	-1.5	-17	5	3511
O=S(=O)(c1c(Cl)sc(Cl)c1Br)N1CCCC1	11	10	1	6.9	-7	9	5166
COCCNC(=O)CSc1nc2cc(OC)c(OC)cc2c(=O)n1Cc1ccco1	3	4	2	2.3	-12	4	16515*
Cc1cc(NC(=O)C(C)N2C(=O)c3ccccc3S2(=O)=O)no1 (stereo unspecified)	3	2	7	2.3	-23	5	?
CCCC(CCC)C(=O)Nc1ccc2c(c1)N(C(=O)CN1CCN(C)CC1)c1ccccc1CC2	-1	10	1	1.3	-3	5	5467

Compounds from the list above containing a nitro group on carbon (two):
SMILES	Mtb hypoxia inh	Mtb hypoxia inh growth	BJeLR viability	RN4220 kill	PrP 5UTR inh	Sa ugtP lethal	Autofluor counter
Cc1cc([N+](=O)[O-])ccc1NCc1cccc2ccccc12	2	-2	13	3.7	-8	30	5533
COc1ccc([N+](=O)[O-])cc1N(CC(=O)Nc1ccccc1C(=O)N1CCOCC1)S(C)(=O)=O	1	-3	-24	1.9	-7	9	4146

Additional records:
SMILES	Mtb hypoxia inh	Mtb hypoxia inh growth	BJeLR viability	RN4220 kill	PrP 5UTR inh	Sa ugtP lethal	Autofluor counter
COc1ccc(-c2nnc(NC(=O)c3ccc(S(=O)(=O)N4COCC4(C)C)cc3)o2)cc1	1	13	17	54	7	49	?
COc1cc(C(=O)COC(=O)c2ccncc2)cc(OC)c1OC	4	13	/	2.9	-18	0	3056
CS(=O)(=O)Nc1ccc(C(=O)NCCSc2ccc(Cl)cc2)cc1	20	7	1	2.1	-30	2	3648
CCc1ccc(OCC(=O)O/N=C(\N)Cc2ccc([N+](=O)[O-])cc2)cc1	14	6	-5	1.3	-12	11	2502
CC(=O)c1cc(C#N)c(SCC(=O)O)nc1C	10	9	1	2.4	-5	2	?
CCCCOc1ccc(-c2nnc(-c3ccncc3)o2)cc1	13	12	-12	11	-63	2	9182
CCc1nnc(NS(=O)(=O)c2ccc(NC(=S)NC(=O)c3ccc(F)cc3)cc2)s1	8	-2	-8	12	-29	87*	2572
CC(C)c1onc(C(=O)N(C)Cc2ccccc2)c1[N+](=O)[O-]	7	2	3	7.2	-3	3	11049
CCCn1c(SCC(=O)Nc2nc(-c3ccc(OC)cc3)cs2)nc2c1c(=O)n(C)c(=O)n2C	7	-15	2	1.3	-14	-1	2186
Cc1nn(C(=O)c2cccs2)c(C)c1CN1C(=O)c2ccccc2C1=O	8	2	0	4.8	-25	10	9175
S=C(NCc1ccccc1)NCc1ccc(CNC(=S)NCc2ccccc2)cc1	-1	6	13	0.7	-23	-4	2092
O=C1C2CCCCC2C(=O)N1c1cccc(OS(=O)(=O)c2ccccc2)c1 (stereo unspecified)	1	4	6	5.6	-35	9	8841
CCC(=O)c1c[nH]c(C(=O)NCc2ccccc2OC)c1	1	10	-3	-0.4	-10	2	3526
COc1ccc(C2CC(c3ccccc3Cl)=NN2c2ccc(S(N)(=O)=O)cc2)cc1 (stereo unspecified)	2	9	/	-14	-16	-19	3409
CCNc1nc(SCC(=O)OC)nc(N2CCOCC2)n1	-4	-3	-7	-0.7	-22	-2	8685
Cn1cccc1-c1cc(C(=O)NN=Cc2ccccc2Cl)[nH]n1	11	5	/	14	/	-8	/
Cn1c(SCC(=O)NC(=O)NCc2ccco2)nnc1C(F)(F)F	/	/	-5	-3.2	-12	-6	2481
O=C(c1cc(-c2ccccn2)nc2c(Cl)cccc12)N1CCN(S(=O)(=O)c2ccccc2)CC1	-1	10	6	4.0	2	-2	2402
CC(C)=C(NC(=O)c1ccccc1)C(=O)NCCc1nc2ccccc2[nH]1	1	9	2	4.3	-13	5	6048
Cc1ccc2cc(CN(c3cccc(C)c3C)S(=O)(=O)c3ccccc3)c(=O)[nH]c2c1	6	0	-4	9.0	-18	1	4295
CC(Oc1ccccc1F)c1ccnc2nc(/N=C/N(C)C)nn12 (stereo unspecified)	/	/	-1	/	-16	/	4502
O=C(COC(=O)Cc1ccc(Br)cc1)Nc1ccc(Cl)cn1	4	4	/	11	-35	2	5415
